Screening data (PubChem BioAssay)
PABP FP inh – PABP-poly(A) binding inhibition; PABP-poly(A) RNA binding, fluorescence polarization; P11940; 290,000 tested, 1% active; inhibition, % at 35 µM;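 active = 50% or more with normal probe brightness, or confirmed in later tests; inconclusive = above 50% with abnormal brightness, or retests that disagree; inactive = below 50% or failed in later tests; about a fifth of its hits are not listed in these tables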;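 also: calls also rest on retests at 20 µM and on dose response follow-up; controls were probe without protein and protein plus probe with vehicle; some compounds called inactive have numbers as strong as hits; many hits fall short of the cut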
Target sequence (P11940 whole entry, looked up): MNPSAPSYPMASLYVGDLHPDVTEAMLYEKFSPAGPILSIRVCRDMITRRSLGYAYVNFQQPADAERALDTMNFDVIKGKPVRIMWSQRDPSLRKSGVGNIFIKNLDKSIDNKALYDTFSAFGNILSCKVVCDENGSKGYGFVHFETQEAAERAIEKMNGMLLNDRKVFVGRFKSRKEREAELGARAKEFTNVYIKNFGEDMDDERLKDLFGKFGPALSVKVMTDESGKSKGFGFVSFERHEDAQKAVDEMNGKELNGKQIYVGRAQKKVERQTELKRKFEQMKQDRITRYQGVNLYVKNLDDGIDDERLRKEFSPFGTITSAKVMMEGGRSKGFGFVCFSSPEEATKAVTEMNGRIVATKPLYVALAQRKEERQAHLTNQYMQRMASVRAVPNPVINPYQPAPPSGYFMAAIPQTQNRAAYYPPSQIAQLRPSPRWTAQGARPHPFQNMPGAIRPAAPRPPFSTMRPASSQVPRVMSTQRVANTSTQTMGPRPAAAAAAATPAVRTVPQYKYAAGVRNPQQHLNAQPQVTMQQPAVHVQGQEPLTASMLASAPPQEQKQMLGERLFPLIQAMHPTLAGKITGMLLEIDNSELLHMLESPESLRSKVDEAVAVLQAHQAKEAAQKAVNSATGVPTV
CSC inhib – cancer stem cell inhibition. inhibition, % at 7.5 µM. cancer stem cell-like cells viability, luminescence. AID 2717. 300,000 tested, 1.1% active;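 active = mean at 75% or more and at least half the replicates too; inconclusive = mean and replicates disagree; tested in HMLE shEcad cells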;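 also: 0% = median of negative and 100% = median of positive control wells; the first replicate is given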
MT1-MMP act inh – MT1-MMP (human) activation inhibition; HT1080 RFP-PRO-GFP cells, GFP/RFP ratio fluorescence, overnight; percent of plate control window, DMSO zero; GFP/RFP ratio change, % at 20 µM; 360,000 tested, 0.061% active; AID 651647;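 active = GFP/RFP ratio change of at least 30% with cell ATP level not reduced by more than half and red fluorescence within 50% of control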; also: strong numbers were not always called active
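Assay system: RFP-PRO-GFP reporter HT1080 cells; read-out basis: GFP/RFP fluorescence ratio; benchmarks: DMSO wells and RFP-L50D-GFP cells; doses: 20 µM single dose, 1% DMSO; schedule: overnight cell settling, then overnight compound exposure, 37 °C, 5% CO2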
Rce1 inhib – inhibitors of yeast Ras-converting enzyme; AID 2563; 290,000 tested, 0.27% active; calls only; Q03530; yeast membranes, quenched prenylated peptide cleavage fluorescence;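 active = fall in fluorescence gain of 50% or more versus controls, with final raw signal at or below 3038400; inconclusive = same 50% fall but final raw signal above 3038400; inactive = fall in fluorescence gain under 50%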;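 also: plate controls were neutral control wells for no effect and wells lacking membranes for full effect; tested at 10 µM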
Env fusion inh – inhibitors of HIV Env-mediated cell fusion | HeLa-JRFL Env/CEM21 cell fusion, luciferase | 360,000 tested, 1.1% active | inhibition, % at 12.3 µM;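 active = mean replicate inhibition score of at least 50 and every replicate individually at or above 50; inconclusive = only one of the two criteria met; inactive = mean below 50 and not all replicates reaching 50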;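 also: 0% = plate neutral controls and 100% = maraviroc near 300 nM; one replicate is shown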
Yeast UUG start – yeast start codon fidelity modulation; S. cerevisiae UUG-firefly luciferase reporter, luminescence/redox ratio; activity score, % at 18.7 µM; 350,000 tested, 0.13% active;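 active = replicate mean at a twofold rise or more, about +100% in these data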;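 also: firefly luciferase made from a UUG start codon reports start codon fidelity; reporter light over untreated wells divided by growth signal over untreated wells; some hits fall short of that in this replicate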
eIF4H inh – inhibitors of RNA binding by human eIF4H | Q15056 | eIF4H fluorescence polarization binding assay | inhibition, % at 35 µM | 290,000 tested, 0.94% active;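 active = 50% or more with normal probe brightness, or confirmed in later tests; inconclusive = above 50% with abnormal brightness, or retests that disagree; inactive = below 50% or failed in later tests; about a fifth of its hits are not listed in these tables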;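 also: calls also rest on retests at 20 µM and on dose response follow-up; 0% = protein and probe with vehicle and 100% = probe without protein; strong numbers were not always called active; many hits fall short of the cut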
eIF4H inh retest – also measured in eIF4H inh; calls as there; inhibition, %; compound at 20 µM; confirmation average;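 mean of two retest wells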
PABP FP inh retest – recorded beside PABP FP inh, whose call it bears; inhibition, %; compound at 20 µM; confirmation repeats;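 mean of two retest wells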
MT1-MMP act inh RFP – further read-out of MT1-MMP act inh, marked with its call; RFP signal change, %; measured here: RFP expression control read;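 0 = vehicle wells; hits needed this value within 50% of zero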
Numbers without * were called inactive; i = inactive; u = inconclusive; x = not tested or not shown.

SMILES	PABP FP inh	CSC inhib	MT1-MMP act inh	MT1-MMP act inh RFP	Rce1 inhib	Env fusion inh	Yeast UUG start	eIF4H inh	others
Cc1ccc(C(C(=O)NC2CCCCC2)N(CC2CCCO2)C(=O)CCCC(=O)Nc2ccccn2)cc1 (stereo unspecified)	5	-8	1	-3	i	48	23	3
CNc1nc(-c2c(C)n(C)c3ccc(OC)cc23)cs1	3	x	24	19	i	-15	0	2
COC(=O)c1scc(S(=O)(=O)C(C)(C)C)c1N	-9	5	2	-1	i	-4	x	-4
Oc1ccc(-c2[nH]ncc2-c2nc3ccccc3s2)c(O)c1	-10	5	-1	0	i	13	x	-5
COC(C[C@H]1O[C@H]1[C@H](O)[C@@H](C)OCc1ccccc1)OC	-8	x	1	4	i	-6	-13	2
O=C(Nc1ccccc1-c1ccccc1)NC1CCN(C(=O)N2CCOCC2)CC1	10	-2	1	-1	i	-344	15	-6
COc1cc(C(N)=O)cc(Cl)c1OCc1ccccc1	-5	9	-4	-4	i	-51	x	11
O=C1CC(=O)Nc2cc(S(=O)(=O)Nc3cccc(C(F)(F)F)c3)ccc2N1	2	-15	-1	3	i	-7	0	-2
Cc1ccc(F)cc1NC(=O)/C=C/c1ccc(S(=O)(=O)N2CCOCC2)cc1	x	-9	6	-4	x	16	2	x
Cc1cccc(NC(=S)N2CCC(C(N)=O)(N3CCCCC3)CC2)c1C	4	-7	1	1	i	-6	x	-7
O=C(C1=NN(c2ccccc2)C2C(=O)N(c3ccc(Cl)cc3)C(=O)C12)c1ccccc1 (stereo unspecified)	1	2	-87	2	x	-3	-8	u
COc1ccc2nc(NC(=O)CSCc3c(C)noc3C)sc2c1	x	-1	7	-5	i	-37	x	x
COc1ccc(Cn2c(=S)[nH]c3cc(C(=O)NCc4cccnc4)ccc3c2=O)cc1	-12	29	7	1	i	3	x	-9
COCCCNc1nc2c(-c3ccc(C)cc3)nnn2c2ccccc12	-6	-9	-8	1	i	-11	-6	-1
O=C(O)c1ccccc1/C=N/NC(=O)C1CCCC1	5	-9	1	-1	i	13	-20	-14
CNC(=S)N/N=C/c1c(C)c(C(=O)c2ccc(F)cc2)n2ccccc12	-1	2	3	-2	i	7	x	0
CC1=C(C(=O)OC(C)C)C(c2cccs2)NC(=S)N1 (stereo unspecified)	-2	-25	1	3	i	-70	-8	-10
CSc1nsc(/C=C/Nc2ccc(C)cc2)c1C#N	10	x	-45	7	i	x	-13	-1
O=c1ccc2cc(O)c(O)cc2o1	4	3	7	-1	i	x	-16	77	eIF4H inh retest=-8;PABP FP inh retest=12
Cc1ccc(NC(=O)CN(C)C(=O)c2ccc(Cl)nc2)cc1	-8	-46	0	-1	i	8	1	-4
CN(C)c1cccc(NC(=O)NC2(C)CCS(=O)(=O)C2)c1 (stereo unspecified)	15	x	-2	3	i	-5	-18	19
O=C(O)c1cc(Nc2nc(N3CCOCC3)nc(N3CCOCC3)n2)ccc1Cl	-11	-13	2	2	i	-40	-3	-6
CCOC(=O)C1=C(c2ccccc2)OC(N)=C(C#N)C1c1cccs1 (stereo unspecified)	10	x	2	4	i	-15	-14	10
COc1cc(S(=O)(=O)Nc2ccccc2)ccc1N=Cc1c(C)[nH]n(-c2ccc(C)cc2)c1=O	-5	9	x	x	i	x	x	-7
COc1ccc(Cl)cc1NC(=S)NNC(=O)CC(C)C	-7	0	-1	5	i	-4	x	8
COCC(C)NC(=O)c1cccc(Cl)c1 (stereo unspecified)	0	x	1	0	i	x	-7	-1
COc1ccc(N2CC(C(=O)Nc3nc4ccc(OC)cc4s3)CC2=O)cc1 (stereo unspecified)	-6	-1	-12	-8	i	2	3	-3
COCCCNC(=S)N1CCN(c2ccc([N+](=O)[O-])cc2)CC1	-1	0	2	-6	i	17	-6	-1
OCc1c[nH]c2ccccc12	x	6	-1	8	x	-2	-16	x
CCNC(=S)NNC(=O)Cc1ccccc1	2	22	-7	-4	i	x	-16	5
COc1ccc(Cl)cc1NC(=O)c1cc(S(=O)(=O)N2CCCC2)cn1C	-11	1	-3	-3	i	13	-6	2
COC(=O)[C@H](Cc1ccccc1)NC(=O)Nc1ccc(C)cc1	-7	-6	-6	-1	i	x	-12	0
Cc1c(O)nc2ccccn2c1=O	-18	17	-3	1	i	2	-12	-12
Cc1c(C(=O)NCc2cccc([N+](=O)[O-])c2)sc(=O)n1Cc1ccc(F)cc1	x	x	9	-5	x	3	-19	x
CCCCC(=O)N(Cc1ccc2c(c1)OCO2)Cc1nc2ccccc2c(=O)[nH]1	-3	6	-1	-1	i	-22	x	-8
Cc1ccc(S(=O)(=O)N2CCCC2C(=O)OCc2ccco2)cc1 (stereo unspecified)	9	-6	-1	6	i	x	-4	11
O=C(N/C=C/c1ccco1)OCc1ccccc1	5	12	2	11	i	8	-11	37
CCCc1[nH]nc2c1C(c1ccc(OC(=O)N3CCOCC3)cc1)C(C#N)=C(N)O2 (stereo unspecified)	2	-10	-6	1	i	x	6	-1
CC(C)(CNS(=O)(=O)c1ccc(Br)s1)N1CCOCC1	x	19	-4	1	x	-2	-9	x
Cc1cccc(N=C2NC(=O)S/C2=C\c2ccco2)c1	-8	-3	-9	-9	i	-5	x	u
C=COCCn1c(=N)n(CCC)c2ccccc21	8	2	0	3	i	x	0	-1
CCOc1cc(CNc2ccc3[nH]c(=O)[nH]c3c2)ccc1OCC(=O)NC(C)(C)C	30	-12	-8	1	i	x	-26	19
CC(C)(C)Cc1c(-c2ccc(C#N)cc2)nc2c(Cl)cc(C(F)(F)F)cn12	x	x	4	-4	x	28	-12	x
C/C(=N\OC(=O)c1ccc(Br)cc1)c1ccccn1	5	18	4	10	i	-14	x	10
CCCc1nnc(NC(=O)C(=O)NCCN(C)C)s1	-2	x	-2	0	i	-6	-8	5
COc1ccc(CCNC(=O)c2nnn(CC(=O)Nc3ccc(C)cc3C)c2N)cc1OC	-14	10	1	0	i	5	-21	-15
Cc1ccc(C)c(NC(=O)CSc2nnc(CNC(=O)c3ccco3)o2)c1	18	-8	2	7	i	1	-24	-4
COc1ccc(N2C(=O)NC3CC2(C)Oc2ccccc23)cc1OC (stereo unspecified)	-6	12	0	4	i	x	-10	-8
c1ccc(-n2nnnc2-c2cnc(-c3cccnc3)nc2-c2cccs2)cc1	8	13	-1	-4	i	17	-12	1
N#Cc1nc(-c2ccco2)oc1NCCc1ccccc1	1	23	14	-3	i	x	-9	0
Cc1ccc(S(=O)(=O)NCCOc2nc(N(C)C)nc(N3CCOCC3)n2)cc1	-2	x	2	1	i	-17	20	-9
CN(Cc1ccccc1)C(=O)COC(=O)C1=NNC(=O)CC1	-4	-14	4	5	i	19	x	4
CS(=O)(=O)Nc1nnc(C2CCCC2)s1	-12	x	-1	4	i	-21	x	-11
O=C(CSc1nc2ccccc2c(=O)[nH]1)N1CCN(c2ccccc2F)CC1	19	x	2	3	i	-4	-11	0
CC1(C(=O)Nc2cccc(NS(C)(=O)=O)c2)Cc2c(-c3cccc(C(N)=O)c3)ccnc2O1 (stereo unspecified)	x	x	-2	-2	x	-3	-14	x
Cc1ccc(SCCNS(=O)(=O)c2ccc3c(c2)OCCO3)cc1	32	-12	-5	-1	i	x	-2	-11
COc1cc2c(cc1NC(=O)COC(=O)/C=C/c1ccc([N+](=O)[O-])cc1)oc1ccccc12	6	12	-7	-2	i	-7	6	10
CCOc1cccc(-c2nnc(SCC(=O)NC3CC3)n2C)c1	-14	0	-1	3	i	-25	-4	-17
CC(C)Cn1c(N)c(C(=O)COC(=O)c2cc(C3CC3)nc3ccccc23)c(=O)n(C)c1=O	118*	0	x	x	x	8	x	-12	eIF4H inh retest=40;PABP FP inh retest=54*
O=C(CSc1ccc2c(c1)OCCO2)Nc1ccc(Cl)cn1	-12	19	3	-5	i	23	-14	-1
Next part:
SMILES	PABP FP inh	CSC inhib	MT1-MMP act inh	MT1-MMP act inh RFP	Rce1 inhib	Env fusion inh	Yeast UUG start	eIF4H inh	others
O=C(CN1CCN(Cc2cccc(C(F)(F)F)c2)CC1)NCC(=O)Nc1ccc(F)c(F)c1F	x	x	-1	-3	x	3	-11	x
CCN(C[C@H]1N[C@@](C)(C(=O)OC)[C@H]2C(=O)N(Cc3ccccc3)C(=O)[C@@H]12)C(=O)Nc1ccc(C)cc1	x	-1	2	10	x	79*	-2	x
CCCCCCCCC(=O)c1c(OC)oc(C=O)cc1=O	x	x	-12	8	x	-12	-13	x
COCc1nnc(NS(=O)(=O)c2ccc(OC)cc2)s1	x	x	2	5	x	3	-8	x
COC(=O)c1ccc2c(c1O)C(=O)c1ccccc1C2=O	27	96*	-1	3	i	-82	-27	1
COc1cc(S(=O)(=O)Nc2ccccc2C)ccc1NC(=O)c1ccncc1	-4	0	5	-1	i	-9	x	2
CN(c1ccccc1)S(=O)(=O)c1cccc(C(=O)Nc2cccc(C(=O)NC3CC3)c2)c1	x	x	5	-8	x	3	-6	x
COC(=O)CSc1nc(C)c(Oc2ccccc2)c(=O)[nH]1	2	x	4	5	i	x	-68	-5
O=C(Cc1csc(-c2ccccc2)n1)NCC(=O)Nc1ccc(F)c(F)c1F	x	-2	-7	-3	x	17	-14	x
COCCNC(=S)N1CCC(NC(=O)c2ccco2)CC1	2	x	-5	-1	i	18	x	3
CCN(CC)CCOC(=O)c1ccc2c(c1)OCCO2	10	1	-2	3	i	x	-10	3
Cc1nn(CC(=O)Nc2cccc(S(N)(=O)=O)c2)c(C)c1[N+](=O)[O-]	0	-3	6	9	i	x	-7	1
CC12CCC(C/C1=N\OC(=O)c1ccc(F)cc1)C2(C)C (stereo unspecified)	11	-5	-1	-2	i	-197	-6	-5
O=C(NCC1COc2ccccc2O1)c1ccc(NC(=O)C(c2ccccc2)c2ccccc2)cc1 (stereo unspecified)	13	12	-2	-10	i	13	2	6
CCC(=O)c1ccc(OCC(=O)NCCC2=CCCCC2)c(OC)c1	-2	0	0	0	i	3	-9	-10
O=C(O)CC12CC3CC(C1)CC(n1ncc(NCc4ccc(F)cc4Cl)c(Cl)c1=O)(C3)C2	-2	-6	-3	-4	i	4	x	2
CCC(=O)Nc1ccccc1C(=O)N1CCOCC1	-9	-1	2	1	i	-4	-10	-3
O=C(CS(=O)(=O)c1ccccc1)NC1CCCCC1	-2	x	1	-1	i	-4	2	-4
O=C1[C@@H]2Cc3c([nH]c4ccccc34)C(c3ccccc3)N2C(=O)CN1C1CCN(Cc2ccccc2)CC1 (stereo partly specified)	-7	20	-7	-10	i	13	-8	-8
O=C(CNC(=O)c1ccccc1Br)N/N=C/c1ccccc1O	-12	x	0	-1	i	2	x	-1
O=C(NCc1ccc(F)cc1)C1CCCN(S(=O)(=O)c2ccc(-n3cnnn3)cc2)C1 (stereo unspecified)	1	7	-1	-4	i	-13	14	-8
COC(=O)c1nn(-c2ccccc2)c(Cl)c1/C=N/OCc1c(Cl)cccc1Cl	x	2	-9	-3	i	-32	-23	x
CCOc1cccc(C2C(C(=O)c3ccco3)=C(O)C(=O)N2Cc2ccncc2)c1 (stereo unspecified)	15	-11	2	2	i	x	-23	11
O=C1CC(c2ccccc2)NN1 (stereo unspecified)	x	0	-1	4	x	13	-12	x
O=C(CSc1ccccc1)Nc1nnc(/C=C/c2ccccc2)s1	-2	-9	5	2	i	10	x	-1
